From PubChem
FGF22 binding – binders of human FGF22 protein, primary screen, FGF22 synaptogenesis inhibitor project, biophysical, thermal shift, single point | Fibroblast growth factor 22 (Homo sapiens), Q9HCT0 | recombinant FGF22 thermal shift, SYPRO orange fluorescence; percent of sucrose octasulfate shift, DMSO zero | calls only at 9.99 µM | 1.5% of 340,000 active | AID 651658, 2012;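 active = melting point raised past a set limit in the mean and every replicate; inconclusive = no clear call; three in four hits are not shown here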
Target sequence (Q9HCT0 whole entry, looked up): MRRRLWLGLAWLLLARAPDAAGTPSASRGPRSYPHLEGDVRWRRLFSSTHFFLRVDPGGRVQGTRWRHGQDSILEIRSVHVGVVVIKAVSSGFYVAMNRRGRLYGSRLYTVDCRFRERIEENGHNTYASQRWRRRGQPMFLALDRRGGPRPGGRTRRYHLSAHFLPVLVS
A1 inh – caspase 3/7 activation in MEF A1-2A-BIM cells, primary screen, A1 inhibitor project, cell-based, luminescence, HTS; caspase activation, % (concentration not given with the values); AID 2462, 2010; 0.066% of 330,000 active; Caspase-Glo 3/7 luminescence, 3 h; percent of clofoctol response, vehicle zero;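 active = over half of replicate activation scores above 10%, or exactly half above 10 with the replicate mean above 10; inconclusive = replicate mean below 10 yet half the replicates above 10; inactive = over half of replicates below 10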;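 also: wells of about 30 µL received 50 nL stock; many hits fall short of the cut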
MLL AF4-AF9 inh – inhibitors of AF4 peptide binding to AF9, primary screen, biochemical, AlphaScreen, biotin-AF4 peptide, FLAG-AF9, single point. AID 651704, 2012. Protein AF-9 (Homo sapiens), P42568. 0.47% of 350,000 active. inhibition, % at 10 µM;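 active = every replicate reaching a set inhibition limit, whatever the replicate mean, cut at about 25% in these data; inconclusive = mean inhibition reaches that limit but some replicates miss it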;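 also: 0% = plate neutral control median and 100% = total signal loss; the record names both 10 and 1 µM as test concentration; the first replicate is given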
Target sequence (P42568 whole entry, looked up): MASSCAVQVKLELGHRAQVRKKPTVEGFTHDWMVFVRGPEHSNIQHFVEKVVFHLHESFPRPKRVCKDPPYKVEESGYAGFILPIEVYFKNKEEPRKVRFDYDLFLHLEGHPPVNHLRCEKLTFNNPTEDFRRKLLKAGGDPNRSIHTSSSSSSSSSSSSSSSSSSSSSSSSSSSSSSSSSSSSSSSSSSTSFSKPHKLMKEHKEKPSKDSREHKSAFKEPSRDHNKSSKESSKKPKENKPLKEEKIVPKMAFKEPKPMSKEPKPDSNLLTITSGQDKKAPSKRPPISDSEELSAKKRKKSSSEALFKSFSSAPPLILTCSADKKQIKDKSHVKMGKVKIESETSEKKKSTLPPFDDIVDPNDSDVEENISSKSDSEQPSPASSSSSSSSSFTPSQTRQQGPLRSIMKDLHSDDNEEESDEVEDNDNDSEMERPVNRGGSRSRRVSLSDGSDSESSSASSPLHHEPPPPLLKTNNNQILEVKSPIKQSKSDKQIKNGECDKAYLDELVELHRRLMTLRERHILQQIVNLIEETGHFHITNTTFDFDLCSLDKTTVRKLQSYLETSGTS
Beta cell apopt – inhibitors of cytokine-induced beta cell apoptosis, primary screen, luminescence. INS-1E cytokine-induced death, ATP luminescence, 48 h; percent of positive-control rescue, neutral wells zero. protection from apoptosis, % (test concentration not listed). 0.8% of 300,000 active. AID 435005, 2010;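 active = all replicates at 75% or more, or half of them and the mean; inconclusive = half reach 75% but not the mean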;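 also: 0% = cytokine-treated negative control wells and 100% = positive control rescue; higher means more ATP so stronger rescue from cytokine killing; wells of about 40 µL received 100 nL stock; the first replicate is given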
E coli growth – E. coli growth inhibition, primary screen, OD600; 0.21% of 330,000 active; Escherichia coli growth, 23 h; stronger effect = lower value; OD600 absorbance (test concentration not listed); AID 1053175, 2014;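 active = OD600 absorbance below the run mean of sample wells minus 3.6 SD, in any replicate, cut at about 0.56 in these data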;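 also: stock transfer was 300 nL into about 60 µL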
UCH37 DUB inh – inhibitors of human UCH37 deubiquitinase, primary screen, biochemical, Ub-AMC cleavage, fluorescence; purified proteasome/UCH37; inhibition, % (no concentration beside the values); 0.33% of 330,000 active; Ubiquitin carboxyl-terminal hydrolase isozyme L5 (Homo sapiens), Q9Y5K5;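 active = mean of two replicates above 20%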;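 also: 0% = compound-free wells with enzyme and 100% = wells lacking proteasome; stock transfer was 100 nL into about 20 µL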
Target sequence (Q9Y5K5 whole entry, looked up): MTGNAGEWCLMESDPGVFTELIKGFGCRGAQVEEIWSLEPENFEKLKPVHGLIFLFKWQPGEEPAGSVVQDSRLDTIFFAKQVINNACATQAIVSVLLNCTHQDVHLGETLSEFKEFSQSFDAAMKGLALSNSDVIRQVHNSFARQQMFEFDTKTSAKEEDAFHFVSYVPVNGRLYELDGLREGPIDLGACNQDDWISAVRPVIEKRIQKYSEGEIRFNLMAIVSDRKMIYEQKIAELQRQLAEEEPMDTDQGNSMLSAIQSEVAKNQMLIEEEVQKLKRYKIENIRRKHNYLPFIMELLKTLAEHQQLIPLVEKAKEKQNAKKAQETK
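Assay system: Proteasome-bound UCH37. Buffer or medium: pH 7.4 Tris-HCl (50 mM) with ovalbumin, ATP-MgCl2, DTT. Incubation: 30 min preincubation with enzyme, 25 min cleavage at room temperature. Measured by: fluorescence, ex 355 nm, em 460 nm. Read-out basis: percent inhibition. Control set: wells without proteasome as full block, compound-free enzyme plus substrate as uninhibited.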
Ecoli rRNA inh – reduced GFP signal of wild-type E. coli, primary screen, bacterial rRNA inhibitor project, GFP/RFP fluorescence, OD600, single point | E. coli WT GFP vs humanized-ribosome RFP mutants, 24 h; stronger effect = lower value; DMSO median 0, no signal -100 | GFP signal change (wild-type ribosome), % (no concentration beside the values) | 1.6% of 350,000 active;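 active = significant combined selectivity score with lowered wild-type GFP, culture density cut under 30%, mutant RFP and density less affected; inactive = any of these conditions unmet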; also: one replicate is shown; some compounds called inactive have numbers as strong as hits
T cruzi inh – inhibitors of intracellular T. cruzi growth, primary screen, luminescence, NIH3T3 host cells | T. cruzi beta-gal in NIH3T3, 90 h | inhibition, % (concentration not given with the values) | 1.4% of 300,000 active;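 active = mean inhibition across valid replicates above about 55%, limit read from the data; inconclusive = mean below that limit but half or more replicates reach it; inactive = mean below it, under half of replicates reach it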;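 also: signal also drops with host cell toxicity which is not excluded here; 0% = plate median of DMSO wells and 100% = zero luminescence signal; higher percent means less beta-gal luminescence so fewer parasites; stock transfer was 50 nL into about 50 µL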
Ecoli rRNA inh OD600 – further read-out of Ecoli rRNA inh, marked with its call; OD600 change, %; measured here: OD600 growth;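 optical density of the mix in the first replicate; 0 = DMSO median and -100 = no signal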
Ecoli rRNA inh RFP – recorded beside Ecoli rRNA inh, whose call it bears; RFP signal change, %; measured here: RFP humanized mutant strains;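 first replicate; 0 = DMSO median and -100 = no signal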
* hit, by the source's call; i = inactive; ? = inconclusive; . = not tested or not shown. The list is partial (hit frequency here may not be typical).

SMILES	FGF22 binding	A1 inh	MLL AF4-AF9 inh	Beta cell apopt	E coli growth	UCH37 DUB inh	Ecoli rRNA inh	Ecoli rRNA inh OD600	Ecoli rRNA inh RFP	T cruzi inh
Cc1nn(C)cc1S(=O)(=O)N1CCN(Cc2ccc(F)cc2Cl)CC1	i	0.0	1.2	0	0.71	6.8	9	25	0.1	13
Cc1ccc(-n2nnc(-c3cnc4ccccc4c3)n2)cc1	i	-6.6	1.9	0	0.71	1.7	11	7	-1.7	10
Cc1ccccc1NC(=O)CSc1nc(N)c(C#N)cc1C#N	.	-0.3	.	-2	0.71	-24	.	.	.	-28
COc1cc(C(=O)N/N=C(\C)c2ccc3c(c2)OCO3)cc(OC)c1OC	i	-0.4	-2.3	-1	.	.	6	0	-0.2	2
CCCCN(Cc1ccccc1)C(=O)C1CCN(S(=O)(=O)c2c(C)noc2C)CC1	i	0.3	3.7	.	0.71	1.8	3	12	0.3	14
COc1ccc(CNC(=O)CCNS(=O)(=O)c2ccc(Br)s2)cc1	i	0.4	0.1	-2	0.65	-2.2	3	0	3.4	-9
CC(=O)Nc1ccc(OCC(O)CN2C(C)(C)CC(O)CC2(C)C)cc1 (centres undefined)	i	0.2	1.3	1	0.69	0.9	2	7	9.0	-14
Cc1ccc(C(=O)NC(=S)Nc2cccc(-c3nc4ccccc4s3)c2)cc1	i	-1.8	-88	3	0.68	6.3	15	7	2.4	-8
CCOc1ccc(N2C(=O)C3Sc4[nH]c(=O)sc4C(/C=C/c4ccccc4)C3C2=O)cc1 (centres undefined)	i	1.4	-1.8	-3	0.7	6.6	7	0	15	5
O=C(NCCNC1CCCCC1)c1ccco1	i	-0.5	-1.2	-4	0.67	0.9	9	12	1.8	-9
O=C(COC(=O)c1ccc2c(c1)OCO2)Nc1ccccc1OC(F)F	i	-0.5	-19	-3	0.69	3.0	-1	8	-2.1	.
O=C(CCCN1C(=O)/C(=C/c2ccccc2Cl)SC1=S)N1CCCC1	i	-1.9	0.9	-42	0.69	9.6	-40*	-16*	1.1*	14
CC1(C)CC(NC(=O)C2CCCCC2C(=O)O)CC(C)(C)N1 (centres undefined)	.	0.3	.	-3	0.68	-0.7	.	.	.	-3
O=C(NC1(C(=O)O)CCCC1)c1ccccc1	i	.	-2.6	.	0.7	2.2	7	16	-1.3	.
O=C(CCN1C(=O)C2CC=CCC2C1=O)Nc1ccc(S(=O)(=O)N2CCCCC2)cc1 (centres undefined)	i	.	-1.0	.	0.68	0.2	1	1	-1.5	.
C/C(=N\Nc1nc2ccccc2[nH]1)c1ccc([N+](=O)[O-])cc1	i	-2.1	-9.9	26	.	.	6	20	-3.3	13
Cc1ccc(C)c2nc(SCC(=O)NCc3cccs3)c(C#N)cc12	.	0.1	.	-3	0.72	-3.8	.	.	.	-12
COc1ccc(C(CNC(=O)c2ccc(-c3cccc(C(F)(F)F)c3)o2)N2CCOCC2)cc1 (centres undefined)	i	-1.0	-4.0	4	0.65	1.0	-14	-46	24	18
CC(C)(C)NC(=O)COC(=O)c1nsc(Cl)c1Cl	.	0.1	.	-2	0.72	-0.3	.	.	.	-9
OC(CNCC1COc2ccccc2O1)COc1ccc(Cl)cc1 (centres undefined)	i	4.0	3.8	-1	0.69	4.5	-20	-15	-1.3	23
COc1ccc(NC(=O)c2ccc(-c3csc(C)n3)cc2)cc1	i	-1.2	1.0	5	0.69	-0.2	12	9	2.0	-9
COc1ccc(CN(Cc2nc3ccccc3c(=O)[nH]2)C(=O)C(C)(C)C)cc1	.	-3.6	.	.	0.75	0.9	.	.	.	-8
O=C(c1ccccc1)c1cnc(-c2ccc(Cl)cc2)s1	.	-0.3	.	3	0.72	2.7	.	.	.	-6
COc1ccc(NC(=O)c2cnn(-c3ccccc3)c2C)cc1OC	i	-4.8	1.0	-1	0.66	2.9	-5	5	-3.2	0
CN(c1ccc(C(=O)NCCc2ccccc2)cc1)S(C)(=O)=O	.	-8.1	.	2	0.72	6.3	.	.	.	-2

Brought forward from above: two compounds; new compounds follow.
SMILES	FGF22 binding	A1 inh	MLL AF4-AF9 inh	Beta cell apopt	E coli growth	UCH37 DUB inh	Ecoli rRNA inh	Ecoli rRNA inh OD600	Ecoli rRNA inh RFP	T cruzi inh
COc1ccc(NC(=O)c2cnn(-c3ccccc3)c2C)cc1OC	i	-4.8	1.0	-1	0.66	2.9	-5	5	-3.2	0
CN(c1ccc(C(=O)NCCc2ccccc2)cc1)S(C)(=O)=O	.	-8.1	.	2	0.72	6.3	.	.	.	-2
N#CCN1C(=O)NC2(CCCc3sccc32)C1=O (centres undefined)	i	0.4	2.9	-7	0.65	-0.1	9	12	0.4	-7
CC(c1nnc(SCn2nnc3ccccc3c2=O)n1-c1ccc(Cl)cc1)N(C)C (centres undefined)	.	0.0	.	-5	0.66	0.6	.	.	.	6
COc1ccc([C@@H]2CC=C(C(=O)O)[C@H](c3cccc(Cl)c3)N2S(=O)(=O)c2ccc(C)cc2)cc1OC	i	-0.4	-6.8	6	.	3.9	-15	-9	-3.3	.
COC(=O)N[C@H](CC(C)=O)c1cccc(C(F)(F)F)c1	i	-0.2	-5.3	-2	.	-2.7	2	4	7.2	-7
COc1ccc(C)cc1S(=O)(=O)N1CCC2(CC1)OCCN2S(=O)(=O)c1cccs1	i	-0.4	-7.4	.	0.64	-0.9	2	4	-1.0	14
O=C(NC1CCCCC1)NC1CC2CCC(C1)N2Cc1nnnn1Cc1ccc2c(c1)OCO2 (centres undefined)	.	0.4	.	-1	0.73	-0.9	.	.	.	12
O=C(Nc1ccon1)c1cccc(Cl)c1	.	-0.4	.	-6	0.62	0.4	.	.	.	7
Cc1sc(NC(=O)CSc2nnnn2C2CCCC2)c(C#N)c1C	.	-0.8	.	-2	0.67	4.4	.	.	.	4
CC(C)c1nnc(NC(=O)CCC(=O)NCC2CCCO2)s1 (centres undefined)	.	0.5	.	1	0.76	4.0	.	.	.	-19
O=C(Cn1c(=O)c2cccn2c2cccnc21)NCCCN1CCN(c2ccc(F)cc2)CC1	i	0.4	8.7	2	.	.	-1	3	-0.6	-9
CC(=O)OCC(=O)C1(O)CCC2C3CCC4=CC(=O)CCC4(C)C3C(O)CC21C (centres undefined)	i	.	-3.3	.	0.68	3.2	.	.	.	.
COc1ccc(Cc2c(N)nc(N)nc2N)cc1	.	0.1	.	3	0.61	4.5	.	.	.	0
O=C(NCCCN1CCOCC1)c1cc(-c2ccccc2F)no1	i	0.6	-1.0	5	0.74	3.9	6	10	1.2	-14
CCOC(=O)c1c(-c2ccc(OC)c(OC)c2)csc1NC(=O)C1CCCO1 (centres undefined)	i	0.3	-2.2	1	0.71	6.7	-37*	4.1*	-9.4*	7
CC(Oc1ccccc1)C(=O)Nc1cccc([N+](=O)[O-])c1 (centres undefined)	i	0.2	1.8	-2	0.66	5.9	5	-3	2.4	-5
CCOC(=O)c1c(C)oc2ccc(NS(=O)(=O)c3ccc(C(=O)O)cc3)cc12	.	-1.0	-3.7	-4	0.68	3.6	-6	-18	-4.3	-9
O=C(COc1ccccc1F)Nc1ccccc1C(=O)NC1CC1	i	0.1	0.7	1	0.71	2.9	9	10	-2.7	.
CCCn1c(SC(C)C(=O)O)nc2ccccc21 (centres undefined)	.	0.1	.	0	0.67	6.1	.	.	.	-3
CCC1CO/C(=C(\C(=C(Cl)Cl)N2CCOCC2)[N+](=O)[O-])N1 (centres undefined)	i	0.0	-0.7	-17	0.68	8.4	23	14	2.0	-4
COc1ccccc1NC(=O)COC(=O)C12CC3CC(CC(Cl)(C3)C1)C2	i	-0.2	-3.0	-4	0.68	5.5	20	16	-1.8	-7
CC(C)(C)NC(=O)NC(=O)COC(=O)c1nc(-c2ccccc2)n(-c2cccc(C(F)(F)F)c2)n1	i	0.2	-0.9	2	0.67	2.3	-9	1	2.9	6
COc1cccc(OCc2nnc(SCc3cc(=O)[nH]c4ccccc34)o2)c1	.	0.6	38*	-4	0.68	5.0	3	-4	-1.9	17
Cc1nnc(-c2ccc(N3CCCCCC3)c([N+](=O)[O-])c2)o1	i	0.4	4.1	0	0.61	7.5	.	.	.	-3
CSC1=C(C#N)C(CC(C)C)C(C(C)=O)=C(C)N1 (centres undefined)	.	-0.1	.	-5	0.77	6.9	.	.	.	-2
Cn1c(N)c(C(=O)CSc2nc3ccccc3n2-c2ccccc2)c(=O)n(C)c1=O	.	-1.2	.	2	0.81	4.4	.	.	.	-5

Other entries
SMILES	FGF22 binding	A1 inh	MLL AF4-AF9 inh	Beta cell apopt	E coli growth	UCH37 DUB inh	Ecoli rRNA inh	Ecoli rRNA inh OD600	Ecoli rRNA inh RFP	T cruzi inh
Cc1cccc(N2CCN(C(=O)COc3ccc4c(c3)CCC4)CC2)c1C	.	0.7	.	-5	0.66	-2.6	.	.	.	-8
COc1cccc(-n2c(=S)sc3c(=O)n(-c4ccccc4OC)c(SCC4OCCO4)nc32)c1	i	0.1	1.4	-2	0.73	3.2	-4	-5	-0.8	28
O=C(CC1C(=O)NCCN1C/C=C/c1ccccc1)NCCCC1CCCC1 (centres undefined)	i	-0.9	-0.3	-5	0.72	0.8	-16	-18	7.5	-5
Cc1onc(NC(=O)NC(=O)c2c(Cl)cccc2Cl)c1Br	i	-0.7	-2.4	-4	0.67	1.8	-7	-22	-7.3	7
CC1(c2ccc(Cl)cc2)NC(=O)N(CC(=O)Nc2ccc(N3CCCCC3)cc2)C1=O (centres undefined)	i	0.5	?	5	0.68	0.5	15	17	4.3	21
Cc1c(NC(=O)Cn2nc(C(=O)O)c3ccccc3c2=O)c(=O)n(-c2ccccc2)n1C	.	0.1	.	-1	0.76	-2.6	.	.	.	9
COc1ccc(OCC(=O)OCC(=O)N2CC(=O)Nc3ccccc32)cc1	i	-0.2	-11	-2	0.69	-1.2	1	7	8.2	5
COCCCNC(=O)c1cc2c(=O)n3cccc(C)c3nc2s1	i	-9.8	-0.2	8	0.69	i	-5	-3	-4.4	-15
C/C(=N\NC(=O)OC(C)(C)C)c1ccc[nH]1	i	0.1	2.0	1	.	.	10	4	-0.3	-10
CS(=O)(=O)Nc1ccc(OCc2ccccc2)cc1	.	-6.8	.	-1	0.71	0.2	.	.	.	-6
